# Mtb H37Rv: M. tuberculosis H37Rv growth inhibitors, H37Rv strain (AID 1626); M. tuberculosis H37Rv growth inhibition; higher % means a stronger effect; hit rate 0.95% among 220,000; inhibition, % at 10 µM; hits with a dose series show IC50 in µM;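 active = confirmed in a dose series; inconclusive = inhibition above 80% but not taken into the dose series; inactive = below 80% or under 30% at every dose of the series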;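 note: bacteria incubated seven days before Alamar blue readout; 0% = bacteria only wells and 100% = bacteria with antibiotic wells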
# Mtb bLac sens: beta-lactam sensitization of Mtb H37Rv; M. tuberculosis H37Rv growth with meropenem, percent inhibition; hits of this screen are not shown here; inhibition, % at 25 µM; hit rate 0.27% among 330,000; AID 434955;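 active = about 74% or more and at least 40 points above the plate without the antibiotic, then above 30% in a dose series; inconclusive = first-round hits that could not be retested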;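 note: growth measured after seven days incubation then overnight dye step; 0% = bacteria only wells and 100% = bacteria with antibiotic; twin plates without the antibiotic show which effects depend on it; some results filed as inactive read as strong as hits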
# RecA intein inh: blocks M. tuberculosis RecA intein splicing; P9WHJ3; cell-free RecA intein splicing, fluorescence; inhibition, %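 (about 9 µM by stock and volumes)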; hit rate 0.75% among 290,000; in the data active = inhibition above about 30%; inconclusive = no clear call, values can overlap the other calls;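 note: 0% = vehicle wells and 100% = reference inhibitor control wells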
# Target sequence (P9WHJ3 whole entry, looked up): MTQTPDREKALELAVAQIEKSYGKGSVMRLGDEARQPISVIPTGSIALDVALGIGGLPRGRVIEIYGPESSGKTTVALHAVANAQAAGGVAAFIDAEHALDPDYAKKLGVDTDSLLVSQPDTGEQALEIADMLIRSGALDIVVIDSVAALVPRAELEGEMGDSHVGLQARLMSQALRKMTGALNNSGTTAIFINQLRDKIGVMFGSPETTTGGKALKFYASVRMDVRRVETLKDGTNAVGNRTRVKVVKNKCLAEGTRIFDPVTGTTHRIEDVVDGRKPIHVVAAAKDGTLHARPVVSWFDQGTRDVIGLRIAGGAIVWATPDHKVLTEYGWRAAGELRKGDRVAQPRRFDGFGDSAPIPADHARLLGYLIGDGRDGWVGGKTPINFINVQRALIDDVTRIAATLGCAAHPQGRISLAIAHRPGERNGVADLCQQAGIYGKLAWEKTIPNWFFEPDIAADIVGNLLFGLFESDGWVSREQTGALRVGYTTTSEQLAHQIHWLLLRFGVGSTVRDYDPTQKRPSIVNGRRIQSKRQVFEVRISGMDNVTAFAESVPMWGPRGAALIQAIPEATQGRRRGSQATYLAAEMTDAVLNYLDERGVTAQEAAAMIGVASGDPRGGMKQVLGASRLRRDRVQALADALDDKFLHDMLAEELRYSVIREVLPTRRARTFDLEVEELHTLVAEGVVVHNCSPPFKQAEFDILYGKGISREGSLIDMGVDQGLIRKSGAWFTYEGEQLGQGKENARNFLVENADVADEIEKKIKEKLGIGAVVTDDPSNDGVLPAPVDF
# YopH PTP inh: YopH (Yersinia) phosphatase inhibition. hit rate 0.16% among 140,000. fluorescence Ex485/Em525. inhibition, %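 (about 10 µM by stock and volumes)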;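 active = inhibition of 50% or more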;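 note: controls were vehicle for no effect and minimum signal wells for full effect; inactives centre near -20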
# Arbovirus anti: arbovirus infection inhibition; arbovirus infection cell-based antiviral screen; inhibition, % at 10 µM; hit rate 0.37% among 200,000; AID 1251;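 active = inhibition from about 30%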;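 note: bluetongue infection of BSR cells; cell survival read as ATP light after 72 h; 0% = infected wells without compound and 100% = uninfected wells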
# Arbovirus anti repeat: further read-out of Arbovirus anti, marked with its call; inhibition, %; measured here: 10K subset replicate screen; many hits read low in the repeat;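 first of two repeat runs on a subset; 0% = infected and 100% = uninfected wells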
# An asterisk follows results filed as active; ? = inconclusive; / = not tested or not shown.
SMILES,Mtb H37Rv,Mtb bLac sens,RecA intein inh,YopH PTP inh,Arbovirus anti,others
CCCOC1CCCN(C(=O)CCc2nnc(CCCCc3ccccc3)o2)C1 (stereo unspecified),-1%,10,-1.4,/,-2,
CC1CCCN(CCOc2ccc3ccccc3c2Br)C1 (stereo unspecified),20%,56,1.8,/,-19,
Cc1ccccc1N=C1SC(CC(=O)Nc2ccc3ccccc3c2)C(=O)N1Cc1ccccn1 (stereo unspecified),14%,6,10,-35,-25,
Cc1ccc(C(=O)c2cc([N+](=O)[O-])ccc2N2CCCCC2)cc1C,8%,-5,11,-17,-13,
Cc1ccc(S(=O)(=O)N2CCCCC2)cc1NC(=O)CCOc1ccccc1,-1%,6,-2.4,-11,-9,
CC(=O)Nc1ccc(S(=O)(=O)N2CCC(C(=O)N[C@@H](Cc3ccccc3)C(=O)O)CC2)cc1,/,-7,-1.5,/,/,
Cc1ccc(NC(=O)CN(C)S(=O)(=O)c2ccc3c(c2)n(C)c(=O)c(=O)n3C)c(C)c1,/,-2,-3.1,/,/,
O=C(CSc1nnnn1C1CCCC1)NCc1cccs1,-7%,1,0.6,/,-3,
COc1ccc(C/C(C)=N/NC(=S)Nc2ccc(Cl)cc2)cc1,1%,0,3.3,/,/,
Cc1ccc(S(=O)(=O)Nc2cccc(C(=O)N3CCOCC3)c2)cc1,/,2,1.9,/,/,
CCN(C(=O)CN1CCN(Cc2ccccc2)CC1)c1c(N)n(Cc2ccccc2)c(=O)[nH]c1=O,1%,-11,6.8,/,4,
Cc1ccc(N2C(=O)CC(C3CCCO3)C2=O)cc1 (stereo unspecified),3%,-7,-0.8,-24,8,
O=C(/C=C/c1c[nH]c2ccccc12)c1cccc2ccccc12,12%,45,?,-30,-21,
CCC(C)(C)NC(=O)CN(Cc1cccs1)C(=O)C(=O)Nc1ccc2c(c1)OCCO2,-4%,8,0.0,-32,17,
C=CCNCCOc1c(C)cc(C)cc1Cl,-4%,-1,1.2,-32,-1,
c1ccc(-c2nnsc2-c2nc3ccccc3[nH]2)cc1,-3%,/,/,/,1,
CCCCCc1nnc(NC(=O)c2ccc(N3CCCC3=O)cc2)s1,/,-5,0.0,/,/,
CCN(CC(=O)NC1CCCC1)S(=O)(=O)c1ccc(Br)cc1,/,-11,-41,/,/,
Cc1noc(C)c1S(=O)(=O)N1CCN(S(=O)(=O)c2ccccc2C#N)CC1,/,8,-0.8,/,/,
COc1ccc([N+](=O)[O-])cc1NC(=O)C(C)N1CCCC1 (stereo unspecified),/,-5,-1.9,/,/,
COc1ccc(OCCCC(=O)NC(C)c2ccccc2)cc1 (stereo unspecified),15%,-9,1.2,-11,-3,
Cc1cc(-c2nnc(SCC(=O)Nc3ccc(C)c(C)c3)n2N)n[nH]1,/,0,0.1,/,/,
O=C(Nc1ccccc1C(=O)N1CCCC1)C1COc2ccccc2O1 (stereo unspecified),0%,-3,-2.5,/,8,
O=C(Nc1nc2ccccc2s1)c1cc(-c2ccco2)nc2ccccc12,14%,7,0.5,23,10,
CCC(CC)C(=O)N1c2ccc(F)cc2CCC1C (stereo unspecified),-7%,-2,-0.2,-35,2,Arbovirus anti repeat=11
Cc1ccc(S(=O)(=O)N2CCC(C(=O)OCC(=O)N3CC(=O)Nc4ccccc43)CC2)cc1,2%,11,/,-42,3,
COc1ccc(C2=NOC(C(=O)N3CCN(c4ccccc4OC)CC3)C2)cc1 (stereo unspecified),10%,-1,2.1,-23,9,Arbovirus anti repeat=2
COc1ccc(-c2cnnc(N/N=C/c3c(C)nn(-c4ccccc4)c3Cl)n2)cc1,0%,4,-7.6,-12,-22,
Cc1nc2nc(C)c(CCC(=O)N3CCN(c4ccccn4)CC3)c(C)n2n1,-3%,-1,1.1,0,-1,
CN(CC(=O)Nc1c(Cl)cccc1Cl)C(=O)C1CCN(C(=O)Nc2ccccc2)CC1,/,5,2.5,/,/,
Cc1ccc(C(=O)O)cc1N=Nc1c(O)[nH]c(=O)[nH]c1=O,-3%,-2,3.7,/,5,
CC(C)(C)c1nnc2sc(SCC(=O)c3cccs3)nn2c1=O,2%,/,2.8,-15,2,Arbovirus anti repeat=3
O=C(NNC(=S)Nc1ccc(F)c(Cl)c1)C1CC1,-1%,1,/,/,4,
CC(=O)Nc1cccc(NC(=O)CSc2nc3c(c(=O)n(C)c(=O)n3C)n2C)c1,/,-4,2.0,/,/,
FC(F)(F)c1cc(-c2cccs2)nc2cc(-c3cccs3)nn12,-2%,0,-5.2,/,/,
CCOc1ccc(C(C(=O)NCC2CCCO2)N(Cc2cccc(OC)c2)C(=O)c2snc(C(N)=O)c2N)cc1 (stereo unspecified),/,3,2.4,/,/,
CCN(CC)CCCCCC(=O)Nc1ccccc1C(=O)Nc1ccccc1,/,-5,-2.2,/,/,
COc1cc(OC)cc(C(=O)Nn2cc(C(=O)N3CCN(C)CC3)c3ccccc3c2=O)c1,-3%,2,-0.1,-45,-1,Arbovirus anti repeat=4
CN(C)CCCNCCCNC(=O)/C(=N\O)c1ccccc1,0%,-6,-0.8,/,/,
CC1(C)Cc2nc3oc4c(SCC(N)=O)ncnc4c3cc2CO1,-1%,-5,-2.6,/,/,

# Among those listed so far, 5 contain a Cl atom:
SMILES,Mtb H37Rv,Mtb bLac sens,RecA intein inh,YopH PTP inh,Arbovirus anti,others
COc1ccc(C/C(C)=N/NC(=S)Nc2ccc(Cl)cc2)cc1,1%,0,3.3,/,/,
C=CCNCCOc1c(C)cc(C)cc1Cl,-4%,-1,1.2,-32,-1,
COc1ccc(-c2cnnc(N/N=C/c3c(C)nn(-c4ccccc4)c3Cl)n2)cc1,0%,4,-7.6,-12,-22,
CN(CC(=O)Nc1c(Cl)cccc1Cl)C(=O)C1CCN(C(=O)Nc2ccccc2)CC1,/,5,2.5,/,/,
O=C(NNC(=S)Nc1ccc(F)c(Cl)c1)C1CC1,-1%,1,/,/,4,

# Other results.
SMILES,Mtb H37Rv,Mtb bLac sens,RecA intein inh,YopH PTP inh,Arbovirus anti,others
O=C1CCCN1c1nccs1,-4%,-2,-3.1,/,6,
Cc1cc(C(=O)NCc2cccs2)n(-c2ccccc2)n1,0%,?,0.0,-44,2,Arbovirus anti repeat=-4
Cc1c(Cl)cccc1N(CC(=O)O)S(C)(=O)=O,-1%,-3,-1.9,-5,-1,
Cn1nnc2cc(C(=O)NCCC3=CCCCC3)ccc21,3%,-9,-1.9,-29,-3,
Cc1ccc(C(=O)Nc2nc(=O)n(C(=O)c3ccccc3Cl)s2)cc1,-6%,/,11,-14,-22,
CC(C)CC(=O)N(c1ccc(F)cc1)C1C=CS(=O)(=O)C1 (stereo unspecified),-2%,-4,-0.6,-57,6,
CCc1cccc2c(C#N)cn(CC(=O)NCCOC)c12,-1%,18,0.5,-17,6,
O=C(CN1C(=O)C2CC=CCC2C1=O)OCC(=O)c1ccc(Cl)c([N+](=O)[O-])c1 (stereo unspecified),/,6,-3.4,/,/,
CN1CCN(c2nc(-c3ccccc3)ncc2S(=O)(=O)c2ccccc2)CC1,5%,3,-3.7,/,-3,
Cc1ccc(CSCC(=O)N2CCN(Cc3ccc4c(c3)OCO4)CC2)cc1,1%,2,0.4,3,-5,
CCOc1ccc(CNC(=O)C2CCCN(S(=O)(=O)N3CC(C)CC(C)C3)C2)cc1OC (stereo unspecified),/,-4,0.4,/,/,
CCC(=O)Nc1ccccc1Sc1ncnc2scc(-c3ccccc3)c12,3%,-8,7.0,-16,-17,
CC(=O)NC1=NN(C(C)=O)C(c2cccs2)S1 (stereo unspecified),2%,1,0.8,-20,6,
CC(C)(C)c1nc2c(Br)cc(Br)cc2c(=O)o1,7%,5,-2.2,-33,1,
CCOc1ccc(N=Nc2c(=O)[nH]n3c(=O)cc(C)[nH]c23)cc1,-7%,9,4.3,-8,-6,
CCCN(CCC)CCCNC(=O)CC1Nc2ccccc2NC1=O (stereo unspecified),-20%,2,0.5,-40,6,
CSc1ccccc1-c1n[nH]c(=S)o1,-3%,/,-0.5,/,5,
CCCNC(=O)c1c[nH]c2ccc(S(=O)(=O)N(C)c3ccc(OCC)cc3)cc2c1=O,74%,99,2.6,-41,-3,
CCC(C)NC(=O)c1nc2c(nnn2Cc2ccccc2Cl)c(=O)[nH]1 (stereo unspecified),-8%,-4,/,/,7,
CCOc1ccc2c(c1)c1nc3ccccc3nc1n2C,/,22,-3.5,/,/,

# Filtered by structure, the entries above containing a tert-butyl group
SMILES,Mtb H37Rv,Mtb bLac sens,RecA intein inh,YopH PTP inh,Arbovirus anti,others
CC(C)(C)c1nnc2sc(SCC(=O)c3cccs3)nn2c1=O,2%,/,2.8,-15,2,Arbovirus anti repeat=3
CC(C)(C)c1nc2c(Br)cc(Br)cc2c(=O)o1,7%,5,-2.2,-33,1,

# Returning to the listing; the three compounds before the break are reprinted first.
SMILES,Mtb H37Rv,Mtb bLac sens,RecA intein inh,YopH PTP inh,Arbovirus anti,others
CCCNC(=O)c1c[nH]c2ccc(S(=O)(=O)N(C)c3ccc(OCC)cc3)cc2c1=O,74%,99,2.6,-41,-3,
CCC(C)NC(=O)c1nc2c(nnn2Cc2ccccc2Cl)c(=O)[nH]1 (stereo unspecified),-8%,-4,/,/,7,
CCOc1ccc2c(c1)c1nc3ccccc3nc1n2C,/,22,-3.5,/,/,
C[C@]12CCC3[C@@H](CCC4=CC(=O)CC[C@@]43C=O)C1CCC2=O (stereo partly specified),/,-8,-7.0,/,/,
O=c1[nH]c(=S)[nH]c2sc3c(c12)CCCCCC3,/,-2,-2.6,/,/,
CCOC(=O)C1CCC(CN(Cc2ccccc2C)S(=O)(=O)c2ccc([N+](=O)[O-])cc2)CC1 (stereo unspecified),7%,12,4.6,-22,-6,
COc1ccccc1N/C(N)=N/c1nc(CSc2ccc(C)cc2)cc(=O)[nH]1,-6%,-9,2.4,7,-8,
COc1cc(OC)c(NS(=O)(=O)c2cc3[nH]c(=O)c(=O)[nH]c3cc2C)cc1Cl,/,2,-1.4,/,/,
CC(C)CC(=O)Nc1nnn(C)n1,0%,2,0.5,-52,3,
CCOC(=O)c1sc2nc(C)nc(Nc3ccc(OC)c(OC)c3)c2c1C,1%,-5,-32,/,10,
O=C(Cc1ccccc1)NCC(=O)N/N=C/c1cccnc1,-5%,-5,-2.8,/,/,
COc1ccc(-c2cc(C(=O)Nc3c(C)n(C)n(-c4ccccc4)c3=O)no2)cc1OC,1%,73,0.0,/,9,
O=C(NCCS(=O)CCNC(=O)C(F)(F)F)C(F)(F)F,-8%,-13,-3.6,-42,0,
O=C(NNc1cc(N2CCOCC2)nc(N2CCOCC2)n1)c1ccc([N+](=O)[O-])cc1,-5%,/,-11,/,5,
Nc1ccccc1C(=O)NCC1(c2ccccc2)CCCC1,/,3,2.7,/,/,
O=C(c1ccc(-c2ccccc2)cc1)c1ccc([N+](=O)[O-])cc1,16%,-14,0.7,/,/,
O=C(c1ccc(Cl)cc1)C12CN3CN(CN(C3)C1)C2,-1%,-7,-2.9,-29,-2,
Cc1ccccc1N1CCN(Cc2ccc(Br)o2)CC1,/,5,3.0,/,/,
CC(Cc1ccccc1)Nc1ncnc2c1ncn2C1OC(CO)C(O)C1O (stereo unspecified),-3%,2,0.6,/,/,
O=C1CC(c2ccc(S(=O)(=O)NCc3ccncc3)cc2)CN1 (stereo unspecified),-4%,-1,0.8,-15,1,Arbovirus anti repeat=4
O=C(NCC(c1cccnc1)N1CCN(c2ccccc2F)CC1)C1CCCCC1 (stereo unspecified),8%,-14,-2.2,-14,-1,
O=c1c2ccccc2nc2n1C(CBr)CS2 (stereo unspecified),-1%,-9,1.0,/,2,
O=C(Cc1ccccc1)N1CCN(S(=O)(=O)c2cccc([N+](=O)[O-])c2)CC1,2%,2,-4.2,/,0,
Cc1ccc(S(=O)(=O)NC2=NCN(CCc3ccccc3)CN2)cc1,-4%,2,2.7,-43,-3,
COc1cc(/C=N/NC(=O)c2cc(C3CC3)[nH]n2)ccc1O,-10%,1,-3.4,/,/,
O=[N+]([O-])c1ccc(Nc2nc(Cl)nc(NCCO)n2)cc1,4%,-3,0.1,/,5,
Cc1ccc(S(=O)(=O)Nc2ccccc2C(=O)OC(C)C(=O)Nc2ccc3ccccc3c2)cc1[N+](=O)[O-] (stereo unspecified),2%,-2,3.4,-30,14,

# Two records picked at random from those above, as already listed:
SMILES,Mtb H37Rv,Mtb bLac sens,RecA intein inh,YopH PTP inh,Arbovirus anti,others
Cc1ccc(S(=O)(=O)NC2=NCN(CCc3ccccc3)CN2)cc1,-4%,2,2.7,-43,-3,
O=[N+]([O-])c1ccc(Nc2nc(Cl)nc(NCCO)n2)cc1,4%,-3,0.1,/,5,

# Source: PubChem BioAssay (several laboratories)

# Not all compounds are listed (hit frequency here may not be typical).
